Beta apoptosis = inhibitors of cytokine-induced beta cell apoptosis, primary screen, luminescence; AID 435005, 2010; INS-1E cytokine-induced death, ATP luminescence, 48 h; percent of positive-control rescue, neutral wells zero; 0.8% of 300,000 active; protection from apoptosis, % (test concentration not listed);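 active = all replicates at 75% or more, or half of them and the mean; inconclusive = half reach 75% but not the mean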;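 also: 0% = cytokine-treated negative control wells and 100% = positive control rescue; higher means more ATP so stronger rescue from cytokine killing; wells of about 40 µL received 100 nL stock; the first replicate is given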
AF4-AF9 inh = inhibitors of AF4 peptide binding to AF9, primary screen, biochemical, AlphaScreen, biotin-AF4 peptide, FLAG-AF9, single point | Protein AF-9 (Homo sapiens), P42568 | inhibition, % at 10 µM | 0.47% of 350,000 active;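 active = every replicate reaching a set inhibition limit, whatever the replicate mean, cut at about 25% in these data; inconclusive = mean inhibition reaches that limit but some replicates miss it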;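 also: 0% = plate neutral control median and 100% = total signal loss; the record names both 10 and 1 µM as test concentration; the first replicate is given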
Target sequence (P42568 whole entry, looked up): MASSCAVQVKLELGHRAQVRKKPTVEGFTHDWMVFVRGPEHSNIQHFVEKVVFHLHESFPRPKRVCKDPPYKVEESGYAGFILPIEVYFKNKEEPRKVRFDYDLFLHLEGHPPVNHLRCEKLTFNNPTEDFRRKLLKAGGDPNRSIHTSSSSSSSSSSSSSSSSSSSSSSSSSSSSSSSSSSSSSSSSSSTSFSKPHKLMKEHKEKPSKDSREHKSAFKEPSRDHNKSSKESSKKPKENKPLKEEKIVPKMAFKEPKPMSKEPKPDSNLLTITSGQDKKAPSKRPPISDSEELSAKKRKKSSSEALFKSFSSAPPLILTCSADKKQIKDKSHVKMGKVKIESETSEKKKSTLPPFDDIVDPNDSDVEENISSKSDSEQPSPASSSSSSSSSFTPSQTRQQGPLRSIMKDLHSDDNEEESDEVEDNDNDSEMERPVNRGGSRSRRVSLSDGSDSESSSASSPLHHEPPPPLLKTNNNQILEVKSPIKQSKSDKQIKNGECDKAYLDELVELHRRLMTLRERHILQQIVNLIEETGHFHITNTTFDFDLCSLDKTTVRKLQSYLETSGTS
Calb FLC = C. albicans growth inhibition with fluconazole, primary screen, CaCi-2 strain, Alamar Blue fluorescence; growth inhibition, % (concentration not given with the values); 0.57% of 300,000 active; C. albicans CaCi-2 (fluconazole-resistant clinical isolate) + fluconazole, 48 h;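 active = most replicates above 75%; inconclusive = exactly half above 75%; inactive = most below 75%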;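 also: all wells also contain fluconazole at 8 µg/ml as a sub-toxic cotreatment; 0% = median of DMSO wells and 100% = median of geldanamycin control wells; wells of about 8 µL received 7.5 nL stock; the first replicate is given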
ALR inh = inhibitors of human ALR sulfhydryl oxidase, primary screen, biochemical, H2O2 detection, HRP-luminol luminescence, single point | FAD-linked sulfhydryl oxidase ALR (Homo sapiens), P55789 | purified ALR, DTT oxidation | inhibition, % (test concentration not listed) | 3.8% of 290,000 active | AID 485317, 2010;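 active = mean and each replicate at 75% or more; inconclusive = only one of the two met; inactive = neither met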;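 also: stock transfer was 7.5 nL into about 7.5 µL; 0% = neutral wells and 100% = wells with inactivated enzyme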
Target sequence (P55789 whole entry, looked up): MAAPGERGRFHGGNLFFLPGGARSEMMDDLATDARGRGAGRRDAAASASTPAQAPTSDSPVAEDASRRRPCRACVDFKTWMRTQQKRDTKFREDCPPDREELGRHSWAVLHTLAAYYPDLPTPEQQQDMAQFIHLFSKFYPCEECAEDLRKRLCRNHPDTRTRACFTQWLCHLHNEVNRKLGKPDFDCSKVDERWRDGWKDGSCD
Ecoli rRNA inh = reduced GFP signal of wild-type E. coli, primary screen, bacterial rRNA inhibitor project, GFP/RFP fluorescence, OD600, single point; E. coli WT GFP vs humanized-ribosome RFP mutants, 24 h; active compounds read low; DMSO median 0, no signal -100; 1.6% of 350,000 active; GFP signal change (wild-type ribosome), % (concentration not given with the values);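 active = significant combined selectivity score with lowered wild-type GFP, culture density cut under 30%, mutant RFP and density less affected; inactive = any of these conditions unmet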; also: one replicate is shown; some compounds called inactive have numbers as strong as hits
RanGTP-Imp inh = inhibitors of RanGTP-importin-beta interaction, primary screen, biochemical, FRET, CFP-Ran, YFP-importin-beta, homogeneous | Ran GTPase (GTP-bound) - importin-beta complex | cell-free CFP-Ran/YFP-importin-beta FRET ratio | inhibition, % (concentration not given with the values) | 1.1% of 300,000 active | AID 2216, 2009;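 active = most replicates above 15%; inconclusive = exactly half above 15%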;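 also: 0% = DMSO wells and 100% = Ran loaded with GDP instead of GTP; wells of about 40 µL received 100 nL stock; the first replicate is given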
FGF22 binding = binders of human FGF22 protein, primary screen, FGF22 synaptogenesis inhibitor project, biophysical, thermal shift, single point. Fibroblast growth factor 22 (Homo sapiens), Q9HCT0. recombinant FGF22 thermal shift, SYPRO orange fluorescence; percent of sucrose octasulfate shift, DMSO zero. calls only at 9.99 µM. 1.5% of 340,000 active. AID 651658, 2012;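 active = melting point raised past a set limit in the mean and every replicate; inconclusive = no clear call; three in four hits are not shown here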
Target sequence (Q9HCT0 whole entry, looked up): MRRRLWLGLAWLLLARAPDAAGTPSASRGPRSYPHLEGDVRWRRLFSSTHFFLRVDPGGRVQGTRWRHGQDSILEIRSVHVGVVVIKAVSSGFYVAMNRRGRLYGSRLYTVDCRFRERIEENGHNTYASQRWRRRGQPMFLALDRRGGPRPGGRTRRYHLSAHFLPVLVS
T cruzi repl = inhibitors of intracellular T. cruzi growth, primary screen, luminescence, NIH3T3 host cells; T. cruzi beta-gal in NIH3T3, 90 h; inhibition, % (test concentration not listed); 1.4% of 300,000 active;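 active = mean inhibition across valid replicates above about 55%, limit read from the data; inconclusive = mean below that limit but half or more replicates reach it; inactive = mean below it, under half of replicates reach it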;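 also: signal also drops with host cell toxicity which is not excluded here; 0% = plate median of DMSO wells and 100% = zero luminescence signal; higher percent means less beta-gal luminescence so fewer parasites; stock transfer was 50 nL into about 50 µL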
Ecoli rRNA inh OD600 = second read-out of Ecoli rRNA inh, no call of its own (marks repeat the call); OD600 change, %; measured here: OD600 growth;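 optical density of the mix in the first replicate; 0 = DMSO median and -100 = no signal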
Ecoli rRNA inh RFP = recorded beside Ecoli rRNA inh, whose call it bears; RFP signal change, %; measured here: RFP humanized mutant strains;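 first replicate; 0 = DMSO median and -100 = no signal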
The depositor's hits bear a star; i = inactive; ? = inconclusive; / = no result given; & = joins results of further samples.

Structure	Beta apoptosis	AF4-AF9 inh	Calb FLC	ALR inh	Ecoli rRNA inh	Ecoli rRNA inh OD600	Ecoli rRNA inh RFP	RanGTP-Imp inh	FGF22 binding	T cruzi repl
Cc1ccc(S(=O)(=O)Nc2ccccc2C(=O)N2CCN(C)CC2)cc1	/	0.0	1	3	15	7	0.8	0.1	i	-7
Cc1cc(C(=O)C(=O)N(C)C)c(C)n1-c1ccc([N+](=O)[O-])cc1	1	/	-1	-15	/	/	/	1.6	/	0
Nc1ccc(N(CCO)CCO)cc1	-1	-3.3	43	97*	22	16	24	?	i	-13
Cc1cccc(C(=O)NCCNC(=O)c2ccccn2)c1	-4	0.8	25	1	-2	-6	0.2	12	/	-21
COC(=O)c1c(NC(=O)c2nn(C)cc2Cl)sc2c1CCCC2	10	/	-3	1	/	/	/	2.4	/	30
CCC1(CC)N=C(c2ccccc2)C(=S)N1	3	-17	6	/	1	6	-5.6	3.9	i	-7
Cc1c(N(C)C(=O)c2ccco2)c(=O)n(-c2ccccc2)n1C	-5	/	-1	-4	/	/	/	3.7	/	-4
N/C(=N\NC(=O)c1ccccc1)c1cc2ccccc2oc1=O	3	-0.7	6	4	8	9	-1.7	?	i	-15
CCO[C@H]1OC(C(=O)N2CCN(Cc3ccc4c(c3)OCO4)CC2)=C[C@@H](c2ccc(Br)cc2)[C@@H]1CCCO	2	8.1&10	10	-6	-22	-50	-4.4	0.4	i	38
Cc1ccc(NC(=O)Nc2cccs2)c(Cl)c1	/	/	58	5	/	/	/	3.1	/	0
CCCN1C(=O)C2(OCCO2)c2cc(Cl)ccc21	/	-4.0	1	-12	5	11	0.7	0.7	i	1
COc1ccc(CN2C(=O)CC(Cc3ccc(C)cc3)C2=O)cc1OC (centres undefined)	0	/	-8	-11	/	/	/	-3.8	/	-10
CCOC(=O)c1sc(NC(=O)c2ccc(S(=O)(=O)N3CCCCCC3)cc2)nc1-c1ccccc1	18	4.7	32	-4	6	18	-2.2	3.3	i	-19
COc1ccc(CCNC2CCc3ccccc3C2)cc1 (centres undefined)	5	-2.3	-19	3	5	2	6.8	-1.1	i	49
Cc1ccccc1NC(=O)COc1coc(CN2CCCc3ccccc32)cc1=O	-11	3.1	1	19	-3	-14	2.5	-9.6	/	5
N=c1cc(C2(O)CCCCC2)n2c(nc3ccccc32)s1	-1	/	17	1	/	/	/	1.4	/	12
Oc1ccccc1C=NC1CCCCC1N=Cc1ccccc1O (centres undefined)	-2	2.1	-4	-3	12	11	-0.2	-0.7	i	-13
O=C1NCCCC1C(=O)N/N=C/c1ccccc1[N+](=O)[O-] (centres undefined)	-7	11	-1	/	1	2	2.0	0.6	i	1
COC(=O)c1cc(S(=O)(=O)NCC2CCN(CCc3cccs3)CC2)c[nH]1	-1	6.1	-2	-3	4	3	0.8	4.1	i	15
O=C(COC(=O)CN1C(=O)c2ccccc2C1=O)Nc1ccccc1[N+](=O)[O-]	1	3.8	/	-1	0	7	-2.6	/	i	/
Cc1ccccc1NC(=O)NCc1ccco1	-2	/	-4	-6	/	/	/	5.2	/	-7
O=C(CSc1nnc(SCc2ccccc2)s1)N/N=C/c1ccc(Cl)cc1Cl	0	1.3	-3	-13	7	3	-3.3	1.2	i	18
COCCNC(=O)c1oc2ccc3c(c2c1C)C(O)CC(C)(C)O3 (centres undefined)	-3	-9.0	2	-4	-2	4	-0.3	-0.5	i	-10
Cc1ccc2ccc3ccc(C)nc3c2n1	78*	0.3	/	2	-64	-80	-17	1.4	i	47
CNc1oc(-c2ccccc2Cl)nc1P(=O)(c1ccccc1)c1ccccc1	4	11	7	14	-12	-23	0.1	-2.3	i	6
CCN(CC)C(=O)CCc1nc2sc3c(c2c(=O)[nH]1)CCCC3	-6	/	22	0	/	/	/	-1.4	/	/
O=C(Nc1cccc(Cl)c1)N1CCN(C/C=C/c2ccccc2)CC1	-1	/	-51	1	/	/	/	4.0	/	18
C=CCn1c(SCC(=O)Nc2ccc(C(=O)O)cc2)nnc1-c1cccnc1	1	-1.9	-3	4	6	9	0.4	8.0	i	6
CC(=O)N1CCc2c(sc(NC(=O)c3cccc(N4C(=O)CCC4=O)c3)c2C(N)=O)C1	-5	-1.0	-2	-8	9	12	3.1	4.1	i	-6
CCCCCCCC1(C)NC(=O)N(CC(=O)Nc2cc(C)on2)C1=O (centres undefined)	-3	-1.5	-1	2	-11	-13	0.5	-3.4	i	0

The last five compounds of the part above lead into the next:
Structure	Beta apoptosis	AF4-AF9 inh	Calb FLC	ALR inh	Ecoli rRNA inh	Ecoli rRNA inh OD600	Ecoli rRNA inh RFP	RanGTP-Imp inh	FGF22 binding	T cruzi repl
CCN(CC)C(=O)CCc1nc2sc3c(c2c(=O)[nH]1)CCCC3	-6	/	22	0	/	/	/	-1.4	/	/
O=C(Nc1cccc(Cl)c1)N1CCN(C/C=C/c2ccccc2)CC1	-1	/	-51	1	/	/	/	4.0	/	18
C=CCn1c(SCC(=O)Nc2ccc(C(=O)O)cc2)nnc1-c1cccnc1	1	-1.9	-3	4	6	9	0.4	8.0	i	6
CC(=O)N1CCc2c(sc(NC(=O)c3cccc(N4C(=O)CCC4=O)c3)c2C(N)=O)C1	-5	-1.0	-2	-8	9	12	3.1	4.1	i	-6
CCCCCCCC1(C)NC(=O)N(CC(=O)Nc2cc(C)on2)C1=O (centres undefined)	-3	-1.5	-1	2	-11	-13	0.5	-3.4	i	0
COc1ccc(C=C(c2ccc(OC)cc2)c2ccc(OC)cc2)cc1	5	/	1	-4	/	/	/	2.2	/	24
N/C(=N\C(=S)Nc1ccccc1)c1ccccc1	3	43*	-16	/	5	2	1.2	-1.7	i	-10
COc1ccc(-c2c(C(F)(F)F)nn(C)c2NC(=O)c2cccnc2)cc1	-5	-5.5	0	/	-9	1	-0.5	4.0	i	2
C#CC(CC)(CC)NC(=O)Nc1ccccc1C(=O)OC	0	-1.7	-11	0	-1	-13	-2.3	2.4	i	4
Cc1ccc(-n2c(C)nnc2SCC(=O)N(C)c2c(N)n(Cc3ccccc3)c(=O)[nH]c2=O)cc1	-2	-2.0	/	0	24	5	-1.0	/	i	/
O=C(Nc1ccc2c(c1)C(=O)NC2=O)c1ccccc1Cl	-2	-1.6	-5	/	7	6	-2.0	4.2	i	-2
CC(=O)NC(Cc1ccc(O)cc1)C(=O)NN (centres undefined)	-7	-2.2	18	37	13	23	0.7	3.9	i	-11
C#CCOCCOCCOCCNc1nc(N2CCN(C(=O)[C@H]([C@@H](C)CC)n3cc([C@@H](N)CO)nn3)CC2)nc(N2CCN(C(=O)[C@H]([C@@H](C)CC)n3cc([C@@H](N)Cc4ccc(O)cc4)nn3)CC2)n1	-2	/	13	/	/	/	/	-1.5	/	-19
CC1=C(C(=O)N2CCOCC2)C(c2ccc(Br)cc2)NC(=S)N1c1ccccc1 (centres undefined)	-2	-0.7	-8	-16	7	7	-0.9	3.6	i	-3
CC1CN(C(=O)c2ccc(-c3ccccc3Cl)o2)CC(C)O1 (centres undefined)	1	0.2	-5	/	-11	-19	0.1	1.1	/	-2
CCOc1ccc(C(=O)N2CCN(c3ccccn3)CC2)cc1OCC	-5	-0.7	2	0	7	0	-1.1	3.8	i	-4
O=C1Nc2ccccc2OCc2c1cccc2[N+](=O)[O-]	4	-1.2	6	-28	/	/	/	?	i	-15
CCOC(=O)C1CCCN(C(=O)CCc2nc3sc4c(c3c(=O)[nH]2)CCCC4)C1 (centres undefined)	1	0.4	/	/	12	8	1.6	/	i	/
COc1ccc(CCN2CC(C(=O)OCC(=O)N(C)Cc3ccccc3)CC2=O)cc1OC (centres undefined)	-9	-4.7	/	-5	-5	6	-1.8	/	i	/
CCCCN(CC)CCNC(=O)C1CCN(S(=O)(=O)c2cccc3nsnc23)CC1	-5	1.6	0	-12	2	10	1.7	5.2	i	16
COc1ccc(C2C=C(C)Nc3ncnn32)cc1 (centres undefined)	0	-15	-7	7	6	-3	-6.0	0.0	i	6
COc1ccc2nc(COC(=O)c3ccco3)c(C(C)=O)[n+]([O-])c2c1	-2	/	8	/	/	/	/	-0.1	/	2
Nc1nc(CN2CCc3ccccc3C2)nc(Nc2ccccc2)n1	3	/	-97	17	/	/	/	?	/	21
O=C(CNC(=O)c1ccc(Br)o1)Nc1cccc(S(=O)(=O)N2CCOCC2)c1	1	0.5	/	-2	3	6	2.1	0.7	i	0
O=C(Cc1ccc2c(c1)OCCO2)N1CCN(S(=O)(=O)c2cccc(C(F)(F)F)c2)CC1	-1	/	6	90*	/	/	/	-0.7	/	-11
CCCCCCc1cc2cc(S(=O)(=O)c3ccc(F)c(Cl)c3)c(=O)oc2cc1O	20	/	1	/	/	/	/	130*	/	10
O=C(CSc1ncc(-c2ccccc2)n1CC1CCCO1)N1CCCCC1 (centres undefined)	-5	/	0	/	/	/	/	2.6	/	0
Cc1ccc(C(=O)OCC(=O)NCc2ccc3c(c2)OCO3)cc1S(=O)(=O)N1CCOCC1	6	-1.9	/	6	12	15	0.4	/	i	/
N#Cc1ccccc1OCC(=O)OCC(=O)NCc1ccc2c(c1)OCO2	0	-0.7	/	-2	10	-1	-3.0	/	i	/
CC(=O)CC(c1ccccc1)c1c(O)c2ccccc2oc1=O (centres undefined)	-9&-6&-5	-20&-1.5&-1.5	17	-3&-41&-6	/	/	/	1.5&-0.6&1.8	i	-21&-24&-12
CN(CC(=O)Nc1ccccc1C(F)(F)F)C(=O)Cn1c(=O)oc2ccccc21	1	-2.0	/	-5	9	5	-0.2	4.1	i	3
Cc1nn(CC(=O)N2CCc3ccccc3C2)c(C)c1Cl	1	-1.8	8	-6	6	13	2.7	-2.6	i	10
Cc1cc(NN)nc(NS(=O)(=O)c2ccc(Cl)cc2)n1	-4	0.0	-4	-7	2	4	2.8	?	i	-4
COc1cc(Cl)c(S(=O)(=O)N2CCOCC2)cc1Cl	-2	/	-5	-7	/	/	/	2.4	/	-3

These rows are one share of the data; rates above refer to the full screens.
